Arbovirus inh – antivirals against arbovirus infection, primary screen, cell-based, full library, 10K replicate subset; arbovirus infection cell-based antiviral screen; inhibition, % at 10 µM; 200,000 compounds, 0.37% hits; AID 1251, 2008;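 active = inhibition from about 30%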;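 note: bluetongue infection of BSR cells; cell survival read as ATP light after 72 h; 0% = infected wells without compound and 100% = uninfected wells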
RecA splice inh – Mtb RecA intein splicing inhibitors, primary screen, biochemical, fluorescence, HTS | AID 2221, 2009 | Protein RecA (Mycobacterium tuberculosis (strain ATCC 25618 / H37Rv)), P9WHJ3 | 290,000 compounds, 0.75% hits | inhibition, %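 (about 9 µM by stock and volumes)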 | cell-free RecA intein splicing; in the data active = inhibition above about 30%; inconclusive = no clear call, values can overlap the other calls;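 note: 0% = vehicle wells and 100% = reference inhibitor control wells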
Target sequence (P9WHJ3 whole entry, looked up, canonical isoform): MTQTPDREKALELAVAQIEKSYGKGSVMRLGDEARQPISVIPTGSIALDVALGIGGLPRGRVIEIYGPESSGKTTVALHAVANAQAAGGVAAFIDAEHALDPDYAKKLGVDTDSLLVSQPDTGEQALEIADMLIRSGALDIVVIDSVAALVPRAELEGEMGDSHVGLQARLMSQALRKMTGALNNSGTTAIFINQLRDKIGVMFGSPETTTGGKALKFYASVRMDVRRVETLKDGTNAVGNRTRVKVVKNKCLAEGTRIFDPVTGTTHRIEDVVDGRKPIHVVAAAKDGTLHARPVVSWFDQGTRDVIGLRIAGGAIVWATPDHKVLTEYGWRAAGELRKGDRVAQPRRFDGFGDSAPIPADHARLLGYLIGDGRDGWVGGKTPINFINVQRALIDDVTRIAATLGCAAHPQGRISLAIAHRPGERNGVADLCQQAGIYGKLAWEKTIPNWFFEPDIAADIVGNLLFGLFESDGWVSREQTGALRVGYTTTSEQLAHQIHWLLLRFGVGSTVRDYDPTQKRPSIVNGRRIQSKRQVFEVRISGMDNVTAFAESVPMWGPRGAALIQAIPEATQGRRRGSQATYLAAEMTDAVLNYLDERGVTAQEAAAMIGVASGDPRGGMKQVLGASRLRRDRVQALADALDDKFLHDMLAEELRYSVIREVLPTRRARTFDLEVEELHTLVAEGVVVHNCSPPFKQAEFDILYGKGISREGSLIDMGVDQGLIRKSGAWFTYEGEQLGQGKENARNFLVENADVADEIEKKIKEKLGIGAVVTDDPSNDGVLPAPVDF
YopH PTP inh – YopH tyrosine phosphatase inhibitors, primary screen, biochemical, fluorescence Ex485/Em525; inhibition, %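 (about 10 µM by stock and volumes)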; 140,000 compounds, 0.16% hits; AID 898, 2007;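 active = inhibition of 50% or more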;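 note: controls were vehicle for no effect and minimum signal wells for full effect; inactives centre near -20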
Mtb bLac sens – beta-lactam sensitization of Mtb H37Rv, H37Rv; M. tuberculosis H37Rv growth with meropenem, percent inhibition; hits of this screen are not shown here; inhibition, % at 25 µM; 330,000 compounds, 0.27% hits; AID 434955, 2010;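 active = about 74% or more and at least 40 points above the plate without the antibiotic, then above 30% in a dose series; inconclusive = first-round hits that could not be retested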;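 note: growth measured after seven days incubation then overnight dye step; 0% = bacteria only wells and 100% = bacteria with antibiotic; twin plates without the antibiotic show which effects depend on it; some results filed as inactive read as strong as hits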
Mtb growth – M. tuberculosis H37Rv growth inhibitors, H37Rv strain (AID 1626); 220,000 compounds, 0.95% hits; M. tuberculosis H37Rv growth inhibition; higher % means a stronger effect; inhibition, % at 10 µM, or IC50 in µM where a hit was titrated;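 active = confirmed in a dose series; inconclusive = inhibition above 80% but not taken into the dose series; inactive = below 80% or under 30% at every dose of the series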;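 note: bacteria incubated seven days before Alamar blue readout; 0% = bacteria only wells and 100% = bacteria with antibiotic wells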
Arbovirus inh repeat – also measured in Arbovirus inh; calls as there; inhibition, %; measured here: 10K subset replicate screen; many hits read low in the repeat;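 first of two repeat runs on a subset; 0% = infected and 100% = uninfected wells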
* marks the source's active call; other numbers are inactive results; u = inconclusive; x = no result given. Some of the compounds tested; rates above refer to the full screens.

SMILES	Arbovirus inh	RecA splice inh	YopH PTP inh	Mtb bLac sens	Mtb growth	others
CCc1ccccc1NC(=S)N(CCN(C)C)Cc1cccs1	6	2.8	x	3	8%
Cc1onc(-c2c(Cl)cccc2Cl)c1C(=O)NCC1CCCO1 (centres undefined)	6	0.6	-2	-1	-9%	Arbovirus inh repeat=-1
O=C(Cn1nnc(-c2ccccc2F)n1)NCCc1ccccc1	1	1.4	-49	-3	2%	Arbovirus inh repeat=1
Cc1ccc2nc3c(c(C(=O)OCC(=O)N(C)C4CCS(=O)(=O)C4)c2c1)CCCC3 (centres undefined)	-3	0.5	x	-6	3%
COc1ccccc1C(=O)NCCC(=O)NCC(c1ccco1)N1CCCCC1 (centres undefined)	x	-4.1	x	-1	x
Cc1cc(/C=C(\C#N)C(=O)NCc2ccco2)c(C)n1C1CCCC1	6	-0.3	1	7	3%
CCn1c(SCC(=O)Nc2ccc(C)cc2)nc2nc3c(cc2c1=O)COC(C)(C)C3	x	0.8	x	0	12%
CC1=NN(C(C#N)c2c(C)nn(Cc3ccccc3)c2C)C(C)(C)C1 (centres undefined)	5	0.6	x	-10	7%
CC(=O)Nc1cccc(C(=O)N/N=C/c2ccccc2F)c1	5	1.1	0	-7	-4%
CCOC(=O)c1cc2c(N)c(C(=O)c3cc(C#N)c(SC)nc3C)sc2nc1C	-9	-3.5	-39	-1	-3%
Cc1nc2c(cnn2-c2ccccc2)c(=O)n1/N=C/c1ccccc1	x	2.5	x	10	4%
CCN(Cc1ccncc1)C(=S)Nc1ccc(Cl)cc1	4	3.3	x	-12	-4%
COc1ccc(C2C(C(=O)N3CCN(c4ccccc4F)CC3)c3ccccc3C(=O)N2C)cc1 (centres undefined)	-3	5.0	3	-3	8%	Arbovirus inh repeat=-8
Nc1nc(N)c(N=Nc2ccc(SCC(=O)O)cc2)c(=O)[nH]1	x	-4.0	x	-3	-4%
COc1ccc(CCNc2ncnc3sc(C)cc23)cc1OC	x	0.7	x	0	x
COc1ccc(-c2nnc(SCc3nnc(-c4ccc(Cl)cc4)o3)n2-c2ccccc2)cc1	-25	1.0	4	-3	-10%
Cc1ccc(NC(=O)Cn2c(/C=C/c3ccccc3)nc3ccccc32)cc1C	-14	-0.6	-6	-3	-4%
CC(C)n1c(SCCCc2ccccc2)nc2c1c(=O)[nH]c(=O)n2C	6	0.5	-19	x	6%	Arbovirus inh repeat=1
COc1ccc(C(=O)N2CCN(C)C(=O)[C@@H]2C)cc1OC1CCN(C(C)C)CC1	x	0.3	x	-13	x
Cc1nn(CC(=O)Nc2ccc(F)cc2)c(=O)c2ccccc12	x	3.4	x	3	x
NC(=O)CSc1nnnn1-c1ccc2c(c1)OCCO2	2	-0.7	34	-2	6%
CC1(C)CC2(CCO1)C(Nc1ccccc1)=NC(=S)N2c1ccccc1 (centres undefined)	x	-4.0	x	-5	0%
Cc1nnc(SCC(=O)N2CCC(c3noc4ccc(F)cc34)CC2)s1	13	2.8	-6	-9	-1%
CCN(CC(=O)Nc1ccccc1OC)C(=O)CN1C(=O)NC2(CCCC2)C1=O	x	-1.5	x	-15	x
COC(=O)C1=C(C(=O)OC)[C@@H]2Nc3ccccc3[C@@]23C[C@@H](C(=O)OC)N(C(=O)c2cc(C)oc2C)C3=N1	x	3.0	x	-4	-12%

Five entries out of the list, sorted by heavy-atom count, largest number first:
SMILES	Arbovirus inh	RecA splice inh	YopH PTP inh	Mtb bLac sens	Mtb growth	others
COC(=O)C1=C(C(=O)OC)[C@@H]2Nc3ccccc3[C@@]23C[C@@H](C(=O)OC)N(C(=O)c2cc(C)oc2C)C3=N1	x	3.0	x	-4	-12%
Cc1ccc2nc3c(c(C(=O)OCC(=O)N(C)C4CCS(=O)(=O)C4)c2c1)CCCC3 (centres undefined)	-3	0.5	x	-6	3%
COc1ccccc1C(=O)NCCC(=O)NCC(c1ccco1)N1CCCCC1 (centres undefined)	x	-4.1	x	-1	x
Cc1nc2c(cnn2-c2ccccc2)c(=O)n1/N=C/c1ccccc1	x	2.5	x	10	4%
NC(=O)CSc1nnnn1-c1ccc2c(c1)OCCO2	2	-0.7	34	-2	6%

Pulled one by one from above, 3 records:
SMILES	Arbovirus inh	RecA splice inh	YopH PTP inh	Mtb bLac sens	Mtb growth	others
CCc1ccccc1NC(=S)N(CCN(C)C)Cc1cccs1	6	2.8	x	3	8%
CC1(C)CC2(CCO1)C(Nc1ccccc1)=NC(=S)N2c1ccccc1 (centres undefined)	x	-4.0	x	-5	0%
NC(=O)CSc1nnnn1-c1ccc2c(c1)OCCO2	2	-0.7	34	-2	6%

The listing picks up with the 2 entries that preceded the break.
SMILES	Arbovirus inh	RecA splice inh	YopH PTP inh	Mtb bLac sens	Mtb growth	others
CCN(CC(=O)Nc1ccccc1OC)C(=O)CN1C(=O)NC2(CCCC2)C1=O	x	-1.5	x	-15	x
COC(=O)C1=C(C(=O)OC)[C@@H]2Nc3ccccc3[C@@]23C[C@@H](C(=O)OC)N(C(=O)c2cc(C)oc2C)C3=N1	x	3.0	x	-4	-12%
CCOC(=O)c1cc(-c2ccccc2)n(CCC(=O)N2CCN(c3ccccc3OC)CC2)c1C	-14	2.5	-4	8	10%
COC(=O)c1ccccc1NC(=O)C(C)NS(=O)(=O)c1ccc(OC)cc1 (centres undefined)	8	2.0	5	-1	3%
Cc1ccc(S(=O)(=O)NCCCOC(=O)Nc2ccncc2)cc1	0	-3.2	-43	-7	-5%
Cc1nc([N+](=O)[O-])c(C(=O)OCc2ccccc2C#N)n1C	-1	-2.3	x	-11	-3%
CN(C)CCN1C(=O)C(O)=C(C(=O)c2cc3ccccc3o2)C1c1ccccn1 (centres undefined)	8	0.7	-23	8	x
CCN(CC)S(=O)(=O)c1ccc(S(=O)(=O)Nc2ccc3c(c2)oc2ccccc23)cc1	-35	2.9	-40	-20	-4%
Cc1ccccc1Cn1c(C)nc2ccccc21	x	2.3	x	-12	x
Cc1nc(NC(=O)CSc2nnc(Cn3nnc4ccccc43)n2C)sc1C	-3	-0.6	-40	-5	5%
CCOC(=O)c1ccccc1NC(=O)CSc1nc2[nH]ncc2c(=O)[nH]1	x	0.3	x	5	x
CC(C)Oc1ccc(OCCn2c(S(=O)(=O)O)nc3c(N)ncnc32)cc1	x	4.0	x	1	x
N#Cc1c(/N=C/c2c(O)n(Cc3ccco3)c(=O)[nH]c2=O)sc2c1CCCC2	3	-3.8	-32	9	0%
CC1(C)Cc2c(C#N)c(NCCCO)nc(-c3ccccc3)c2CO1	-5	-1.9	x	-3	5%	Arbovirus inh repeat=-7
COc1cccc(CN2CC(C(=O)N(C)Cc3nc4ccc(F)cc4[nH]3)CCC2=O)c1 (centres undefined)	x	0.4	x	4	x
CCCCOc1ccc(CSCCNC(=S)Nc2ccccc2)cc1	3	0.6	-37	5	12%
COC(=O)N(NC(=O)C(O)(CCC(C)C)CCC(C)C)c1ccccc1	-1	-3.4	70*	-5	38%
COC(=O)c1sc2ncccc2c1OCc1c(Cl)cccc1Cl	7	1.0	-37	10	-4%
COc1ccc(-n2nc(C(=O)NCC(=O)NCc3ccco3)c3ccccc3c2=O)cc1	1	-2.9	-25	u	-8%
O=C(c1ccncc1)c1ccc(NC(=O)c2cccs2)cc1	-7	-0.1	x	-11	10%
O=C(c1cccs1)N1CCc2c([nH]c3ccccc23)C1c1ccc(Cl)cc1 (centres undefined)	-6	-1.5	-28	-5	11%
Cc1ccc(S(=O)(=O)Nc2cccc(C(=O)NCc3cccnc3)c2)cc1F	x	2.4	x	-8	x
Cc1cccc(N2C(=O)NC(=O)/C(=C\c3cnn(-c4ccccc4)c3)C2=O)c1	-2	1.4	-8	-6	-8%
CN(C)CC(O)CN1C(=O)NC(C)(C)C1=O (centres undefined)	6	-0.1	x	5	-2%
COc1ccc(N2CCN(CC(O)COCc3ccccc3)CC2)cc1 (centres undefined)	-4	-1.9	x	-6	-12%
CCOC(=O)c1c(N)sc(C(N)=O)c1C	-3	-0.1	2	84	8%	Arbovirus inh repeat=-5
COCC(=O)Nc1cc(Cl)c(OC)cc1OC	1	-6.8	-27	7	1%
Additional results.
SMILES	Arbovirus inh	RecA splice inh	YopH PTP inh	Mtb bLac sens	Mtb growth	others
COC(=O)COc1ccc(-c2ccccc2)cc1C=O	-8	1.9	x	99	x
CCn1c(CNc2ccc(OC)cc2)nnc1SCC(=O)N1CCCc2ccccc21	-25	-2.6	-5	85	54%
Cc1cccc(C(=O)OCC(=O)NC(C)CCc2ccccc2)c1O (centres undefined)	x	1.6	x	2	x
CC(C)C[C@@H](CO)N1CCN(C)CCC1=O	x	0.0	x	-18	x
Cc1nnc(-c2cnn(-c3ccccc3)c2N)n1Cc1ccccc1	-1	-1.0	-25	-3	3%
Cn1c(C(N)=O)cnc1Sc1ncc(C(F)(F)F)cc1Cl	-11	-0.1	-29	-6	-7%
C=CCn1c(CSc2nnc(-c3ccccc3)n2C)n[nH]c1=S	x	-0.2	x	0	2%
O=C(O)c1cccc(N2C(=O)/C(=C/c3ccc(SCc4ccc(Cl)cc4)o3)SC2=S)c1	-2	x	x	x	12%
CCn1c(C)[n+](CCCS(=O)(=O)[O-])c2cc(Cl)c(Cl)cc21	4	4.8	-13	-7	-2%
CC(C)(C)c1ccc(Cc2n[nH]c(=S)[nH]c2=O)cc1	x	3.3	x	-8	x
CC1(C(=O)O)Sc2[nH]c(=O)sc2C2c3ccccc3OC(=O)C21 (centres undefined)	3	-2.5	-47	-4	-21%
O=C(Nc1cccc(C(=O)O)c1)Nc1ccc2c(c1)OCO2	x	-2.1	x	-5	x
CC1Cc2ccccc2N1c1ncnc2c1nnn2Cc1ccccc1 (centres undefined)	-3	0.4	-26	u	14%
O=C(COc1ccccc1Cl)NCCCN1CCOCC1	11	5.8	-18	-2	0%
O=C(Nc1nc(COc2ccccc2)cs1)C12CC3CC(CC(C3)C1)C2	-15	4.6	-10	u	21%
N#Cc1ccccc1Cn1cc(C(=O)c2cccs2)c2ccccc21	1	-4.7	-33	0	8%
Cc1cc(Cl)ccc1OCC(O)CNCCc1ccc(S(N)(=O)=O)cc1 (centres undefined)	x	1.4	x	-4	x
CCCCC(=O)Nc1ccc2c(c1)nc(CCN1CCN(C)CC1)n2C	x	-2.2	x	-8	-11%
COc1ccc(S(=O)(=O)N2CCC(NC(=O)N3CCOCC3)CC2)cc1	2	-4.1	x	-5	4%
CCOc1ccc(C(CC(=O)O)NC(=O)C2c3ccccc3Oc3ccccc32)cc1 (centres undefined)	14	1.2	-14	4	5%
Cc1occc1C(=O)NC1CCCCCC1	-1	1.5	-47	-2	3%	Arbovirus inh repeat=5
CCOC(=O)c1cccc(NC(=O)CCc2nnc3ccc(N4CCN(C)CC4)nn23)c1	x	2.7	x	5	x
O=C(COC(=O)CN1C(=O)C2CCCCC2C1=O)Nc1ccc(S(=O)(=O)N2CCOCC2)cc1 (centres undefined)	5	2.7	-45	-4	3%

Assay outcomes deposited in PubChem BioAssay by several laboratories.
